High-throughput results from PubChem.
T cruzi inh: T. cruzi replication inhibition | AID 1885 | 300,000 compounds, 1.4% hits | inhibition, % (concentration not given with the values) | T. cruzi beta-gal in NIH3T3, luminescence, 90 h;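 active means mean inhibition across valid replicates above about 55%, limit read from the data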;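 further: signal also drops with host cell toxicity which is not excluded here; 0% = plate median of DMSO wells and 100% = zero luminescence signal; higher percent means less beta-gal luminescence so fewer parasites; stock transfer was 50 nL into about 50 µL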
Bfl-1 A1 inh: inhibitors of the anti-apoptotic protein A1, read as caspase activation. AID 2462. 330,000 compounds, 0.066% hits. MEF A1-2A-BIM cells, Caspase-Glo 3/7 luminescence, 3 h; percent of clofoctol response, vehicle zero. caspase activation, % (no concentration beside the values);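 active means over half of replicate activation scores above 10%, or exactly half above 10 with the replicate mean above 10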;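 further: wells of about 30 µL received 50 nL stock; many hits fall short of the cut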
rRNA inh HTS: selective bacterial rRNA inhibition in E. coli. E. coli WT GFP vs humanized-ribosome RFP mutants, fluorescence, 24 h; hits give low values; DMSO median 0, no signal -100. AID 720706. 350,000 compounds, 1.6% hits. GFP signal change (wild-type ribosome), % (concentration not given with the values);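 active means significant combined selectivity score with lowered wild-type GFP, culture density cut under 30%, mutant RFP and density less affected; inactive means any of these conditions unmet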; further: one replicate is shown; some compounds called inactive have numbers as strong as hits
Beta apoptosis: beta cell apoptosis inhibition. INS-1E cytokine-induced death, ATP luminescence, 48 h; percent of positive-control rescue, neutral wells zero. protection from apoptosis, % (no concentration beside the values). 300,000 compounds, 0.8% hits. AID 435005;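 active means all replicates at 75% or more, or half of them and the mean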;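 further: 0% = cytokine-treated negative control wells and 100% = positive control rescue; higher means more ATP so stronger rescue from cytokine killing; wells of about 40 µL received 100 nL stock; the first replicate is given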
UCH37 inh: human UCH37 deubiquitinating enzyme inhibition; Q9Y5K5; purified proteasome/UCH37, Ub-AMC cleavage fluorescence; inhibition, % (concentration not given with the values); 330,000 compounds, 0.33% hits; AID 588478;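 active means mean of two replicates above 20%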;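 further: 0% = compound-free wells with enzyme and 100% = wells lacking proteasome; stock transfer was 100 nL into about 20 µL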
Target sequence (Q9Y5K5 whole entry, looked up): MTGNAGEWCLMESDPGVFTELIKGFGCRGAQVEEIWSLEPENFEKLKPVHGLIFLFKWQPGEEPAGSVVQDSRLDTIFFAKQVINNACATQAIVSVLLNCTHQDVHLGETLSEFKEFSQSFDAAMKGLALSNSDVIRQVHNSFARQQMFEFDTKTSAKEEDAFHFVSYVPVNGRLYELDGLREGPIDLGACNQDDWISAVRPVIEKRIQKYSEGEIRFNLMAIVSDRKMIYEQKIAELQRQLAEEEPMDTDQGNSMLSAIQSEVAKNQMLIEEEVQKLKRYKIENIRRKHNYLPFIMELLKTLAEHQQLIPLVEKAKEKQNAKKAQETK
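Material: human UCH37 enzyme supplied as purified proteasome complex / Amount: 0.15 nM proteasome as dispensed / Buffer or medium: pH 7.4 Tris-HCl (50 mM) with ovalbumin, ATP-MgCl2, DTT / Times: preincubation 30 min, reaction 25 min, room temperature / Technique: AMC fluorescence from Ub-AMC cleavage, excitation 355 nm, emission 460 nm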
AF4-AF9 inh: MLL-AF4/AF9 protein interaction inhibition. P42568. inhibition, % at 10 µM. 350,000 compounds, 0.47% hits. AlphaScreen, biotin-AF4 peptide binding to FLAG-AF9. AID 651704;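 active means every replicate reaching a set inhibition limit, whatever the replicate mean, cut at about 25% in these data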;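 further: 0% = plate neutral control median and 100% = total signal loss; the record names both 10 and 1 µM as test concentration; the first replicate is given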
Ecoli growth: E. coli growth inhibition; AID 1053175; Escherichia coli growth, OD600, 23 h; hits give low values; OD600 absorbance (no concentration beside the values); 330,000 compounds, 0.21% hits;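 active means OD600 absorbance below the run mean of sample wells minus 3.6 SD, in any replicate, cut at about 0.56 in these data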;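 further: stock transfer was 300 nL into about 60 µL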
FGF22 binding: shifts melting point of recombinant human FGF22 | 340,000 compounds, 1.5% hits | recombinant FGF22 thermal shift, SYPRO orange fluorescence; percent of sucrose octasulfate shift, DMSO zero | Q9HCT0 | calls only at 9.99 µM;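 active means melting point raised past a set limit in the mean and every replicate; three in four hits are not shown here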
Target sequence (Q9HCT0 whole entry, looked up): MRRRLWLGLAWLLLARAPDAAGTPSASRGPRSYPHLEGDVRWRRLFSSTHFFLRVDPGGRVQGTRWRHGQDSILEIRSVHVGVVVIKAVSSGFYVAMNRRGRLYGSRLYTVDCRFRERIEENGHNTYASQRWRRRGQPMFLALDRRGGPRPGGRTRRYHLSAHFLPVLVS
rRNA inh HTS OD600: recorded beside rRNA inh HTS, whose call it bears; OD600 change, %; measured here: OD600 growth;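 optical density of the mix in the first replicate; 0 = DMSO median and -100 = no signal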
rRNA inh HTS RFP: further read-out of rRNA inh HTS, marked with its call; RFP signal change, %; measured here: RFP humanized mutant strains;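 first replicate; 0 = DMSO median and -100 = no signal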
* marks the source's active call; other numbers are inactive results; i = inactive; / = not tested or not shown; + = active, no number; & = joins results of further samples. A portion of the library, so the mix of outcomes need not match the whole.

SMILES	rRNA inh HTS RFP	T cruzi inh	AF4-AF9 inh	Beta apoptosis	Bfl-1 A1 inh	Ecoli growth	UCH37 inh	FGF22 binding	rRNA inh HTS OD600	rRNA inh HTS
O=C1C[C@@H](c2ccc(O[C@@H]3O[C@H](CO)[C@@H](O)[C@H](O)[C@H]3O)cc2)Oc2cc(O)ccc21	-0.6	-2	-1.3	-2	-3.1	/	1.9	i	7	-1
COc1cccc(CNC(=O)C2CCC(=O)N(CC3CCCCC3)C2)c1OC (centres undefined)	-0.9	1	0.0	0	0.1	/	/	i	7	-2
C=Cn1cc[n+](CC(=O)c2ccc(OC)c(OC)c2)c1	2.4	-6	29*	1	-0.2	0.68	3.0	i	5	3
CCOC(=O)Nc1nnc(CCc2ccccc2)s1	/	-4	/	-3	1.3	0.7	1.0	/	/	/
Cc1ccc(N2CC(NC(=O)C(=O)c3c(C)[nH]c4ccccc34)CC2=O)cc1C (centres undefined)	0.6	5	2.7	/	-0.1	0.67	5.7	i	-16	-13
CC(C)Cn1c(=O)c2sccc2n2c(CCCC(=O)NC3CCN(Cc4ccccc4)CC3)nnc12	-2.4	40	2.1	14	1.0	0.67	0.8	i	12	6
O=C(Nc1ccccc1Cl)Nc1cccnc1Cl	0.3	-3	0.0	1	-1.7	0.66	2.0	i	2	9
COc1cc2cc(-c3ccc(OC)c(OC)c3C)nc(N)c2cc1OC	-1.3	15	13	-11	1.5	0.7	-16	i	-14	-18
CCN(CC(=O)NC(C)C)C(=O)C(CCSC)NC(=O)c1ccccc1OC (centres undefined)	-0.7	-3	-0.9	1	-0.4	0.64	1.2	i	9	20
O=C(CCc1ccccc1)Nc1ccnn1C1CCN(C/C=C/c2ccccc2)CC1	0.3	10	5.6	-4	0.0	/	/	i	8	0
CCC(C)N(C(=O)c1csnn1)C(C(=O)NCc1ccc(F)cc1)c1ccccc1F (centres undefined)	-2.0	2	-1.4	3	-0.2	0.66	2.9	i	-9	0
CC1(C)Oc2ccc3ccc(=O)oc3c2/C(=N/O)C1=O	2.0	6	-1.8	-4	0.9	0.7	-2.2	i	12	17

Next part.
SMILES	rRNA inh HTS RFP	T cruzi inh	AF4-AF9 inh	Beta apoptosis	Bfl-1 A1 inh	Ecoli growth	UCH37 inh	FGF22 binding	rRNA inh HTS OD600	rRNA inh HTS
CCc1c(N)nc(N)nc1Nc1ccccc1Cl	-6.8	/	0.7	/	/	0.64	0.6	i	-26	-9
Cc1cccc(Nc2nnc(SCC(=O)Nc3ccc(C(=O)O)cc3)s2)c1	-1.1	1	-8.0	0	-3.4	0.69	1.0	/	9	0
CNC(=O)c1c(NC(=O)C2=COCCO2)sc(C)c1C	-3.7	-6	0.9	-4	1.1	0.67	3.0	i	1	-5
Cc1ccc(CONC(=O)c2cccc([N+](=O)[O-])c2)cc1	/	/	0.5	-4	-2.8	0.7	1.9	i	/	/
CSc1nc(Sc2ccccc2Cl)c2ccccc2n1	/	-1	/	-9	0.1	0.65	-0.6	/	/	/
Cc1cccc(-n2nnnc2SCC(=O)NCCN2C(=O)CSC2=O)c1	/	4	/	0	-0.8	0.67	2.1	/	/	/
Cc1cc(C)c(C(=O)CSc2nc(C)cc(=O)[nH]2)c(C)c1	5.4	-5	-3.5	1	0.5	0.67	4.4	i	-3	-3
COc1ccc(NC(=O)N(C)C[C@H]2Oc3ccc(NC(=O)NC4CCCCC4)cc3C(=O)N([C@H](C)CO)C[C@@H]2C)cc1	-0.1&-0.5	/	-1.7	-1	-1.8	/	1.4	i	-9&-8	-6&-9
O=C(O)c1ccc(S(=O)(=O)N(Cc2cccs2)CC2CCCO2)cc1 (centres undefined)	-3.2	-19	-9.7	-12	0.6	0.71	3.8	i	-2	-4
c1ccc(-c2cn(C[C@H]3CC[C@@H]([C@@H]4CC[C@H](Cn5cc(-c6ccccn6)nn5)O4)O3)nn2)nc1	4.0	-13	/	/	0.1	/	0.8	i	9	14
Cc1ccc(C(=O)Nc2nc(=O)n(C(=O)C3CC3)s2)cc1	5.9	-17	5.2	-14	-0.3	0.64	1.9	+	-3	5
COC(=O)CCCC1=CC2=CC(=O)C(C)(OC(=O)c3cccs3)C(=O)C2=CN1Cc1ccco1 (centres undefined)	6.8	-17	0.4	-10	0.0	0.7	3.8	i	3	9

Next records:
SMILES	rRNA inh HTS RFP	T cruzi inh	AF4-AF9 inh	Beta apoptosis	Bfl-1 A1 inh	Ecoli growth	UCH37 inh	FGF22 binding	rRNA inh HTS OD600	rRNA inh HTS
COc1ccccc1N1CCN(C(=O)C(=O)c2c[nH]c3ccccc23)CC1	5.7	-12	3.3	3	1.2	0.69	3.8	i	-7	-12
Cc1ccc(S(=O)(=O)N2CCC(C(=O)OCc3ccccc3)CC2)cc1C	4.4	-10	-1.9	-6	-0.4	0.63	1.8	i	-10	-3
NC(=O)N/N=C/c1cccc(OCc2ccc(F)cc2)c1	-0.7	-7	-5.3	1	-0.9	/	/	i	1	6
O=S(=O)(c1cc(Cl)ccc1Cl)N1CCCC1	/	0	/	-2	-0.3	0.72	4.4	/	/	/
CCCN(CC(=O)Nc1ccccc1OC)C(=O)c1nc2nc(C)ccn2n1	0.6	/	-6.8	-2	0.2	0.69	0.4	i	10	12
Cc1cccc2c1nc(-c1ccccc1)n1nnnc21	/	15	/	2	0.8	0.73	-11	/	/	/
COc1cccc(NC(=O)c2ccc3c(c2)N(CC(=O)N2CCOCC2)C(=O)C(C)(C)O3)c1	-1.1	7	3.4	3	0.3	0.67	2.7	i	8	6
COc1cccc(CNS(=O)(=O)c2ccc3c(c2)oc(=O)n3C)c1	1.0	5	-1.3	-1	-0.5	0.64	-0.2	i	1	7
CCCOc1nc2c(c(=O)n(C)c(=O)n2C)n1CCC	-2.4	1	-35	-9	0.1	0.67	-1.1	i	5	-1
CC(C)CNS(=O)(=O)c1ccc2c(c1)OCCO2	/	-12	/	-8	0.9	0.72	2.6	/	/	/
COCCCn1c(=O)c2sccc2n(Cc2cccc(C)c2)c1=O	-1.0	-3	-6.4	/	0.0	0.68	1.7	i	-3	-17
Fc1ccc(C(c2nnnn2Cc2cccs2)N2CCN(c3ccccc3)CC2)cc1 (centres undefined)	/	-13	/	/	0.1	0.73	2.8	/	/	/

The list goes on.
SMILES	rRNA inh HTS RFP	T cruzi inh	AF4-AF9 inh	Beta apoptosis	Bfl-1 A1 inh	Ecoli growth	UCH37 inh	FGF22 binding	rRNA inh HTS OD600	rRNA inh HTS
CC(C)(C)NCCOCCOc1ccccc1-c1ccccc1	/	8	/	-2	0.6	0.66	6.2	/	/	/
CN1CCN(c2ccc(S(=O)(=O)N3CCOCC3)cc2NC(=O)C2CCCCC2)CC1	-3.1	/	5.6	/	/	0.72	3.4	i	8	2
CCOC(=O)C(NC(=O)c1cccc(Cl)c1)(OCc1ccc(F)cc1)C(F)(F)F (centres undefined)	/	-2	/	-10	0.1	0.69	-22	/	/	/
CCCC(=O)Nc1ccc2c(c1)nc1n2CCOC1	/	-8	/	-1	-1.9	0.67	0.5	/	/	/
O=c1oc2cc(Cl)ccc2n1CSc1nc2ccccc2s1	/	0	/	2	0.3	0.76	3.3	/	/	/
O=C(CN1CCN(c2cccc(Cl)c2)CC1)Nc1ccc([N+](=O)[O-])cc1C(=O)Nc1ccccc1F	-1.5	65*	-1.0	-8	0.0	0.73	4.4	i	16	7
Cc1nn(-c2ccc(C(=O)O)cc2)c(=O)c2ccccc12	/	-7	/	-5	0.4	0.69	1.4	/	/	/
CC1(C(=O)NCCN2CCOCC2)C=CCN1C(=O)c1ccccc1 (centres undefined)	-4.9	-9	-1.4	-1	0.0	0.67	-0.6	i	7	0
C/C(=N\NC(=O)CNC(=O)c1ccccc1Br)c1ccco1	-1.6	-10	-7.2	3	0.1	/	/	i	5	6
CCOCCCNC(=O)C1CCCN1C(=O)Nc1ccccc1[N+](=O)[O-] (centres undefined)	-4.2	-6	-0.2	-3	1.8	0.68	3.5	i	10	0
Cc1ccc(/C=N/NC(=O)Cn2nnc(N)n2)cc1	-3.0	-13	-0.7	-7	0.8	/	/	i	5	5
COc1ccc(-c2[nH]ncc2CN2CCN(C(=O)c3cccs3)CC2)c(F)c1	4.0	1	1.5	-12	0.7	0.68	1.0	i	-21	1

(listing goes on)
SMILES	rRNA inh HTS RFP	T cruzi inh	AF4-AF9 inh	Beta apoptosis	Bfl-1 A1 inh	Ecoli growth	UCH37 inh	FGF22 binding	rRNA inh HTS OD600	rRNA inh HTS
CCC(=O)Nc1ccc(C2=Nn3c(nnc3C(C)C)SC2)cc1	4.9	0	-0.3	0	0.6	0.65	4.7	i	9	16
Cc1cc(C)c(/C=N/NC(=O)c2nnn(-c3nonc3N)c2CN2CCC(C)CC2)c(C)c1	5.7	36	4.5	18	-0.2	/	/	i	4	-2
CCOC(=O)c1cnc2scnn2c1=O	4.2	-9	-42	/	/	0.65	-8.4	i	4	12
CCNc1nc(OC)nc(SCC(N)=O)n1	/	-26	/	-6	0.5	0.73	1.6	/	/	/
CS(=O)(=O)c1ccc(Cl)c(NC(=O)CCCSc2ccccc2)c1	-2.1	-13	-19	-5	0.2	0.7	-0.4	i	-1	-4
Cc1ccc(N=N/C(=C\O)C(=O)c2ccncc2)cc1	/	-2	/	2	-0.2	0.76	11	/	/	/
Cc1ccc(C(=O)N2CCN(c3ccccc3)CC2)cc1S(=O)(=O)N1CCOCC1	2.0	2	1.4	/	-0.3	/	/	i	1	11
O=C(O)[C@@H]1CCCN1C(=O)c1ccccc1N1C(=O)[C@@H]2Cc3c([nH]c4ccccc34)C(c3cccc(Cl)c3)N2C1=O (some centres undefined)	-18	-1	0.7	/	0.3	0.75	-0.2	i	-24	-21
COc1ccc(CN2CCN(Cc3ccc4cc(F)ccc4n3)CC2CCO)c(C)c1C (centres undefined)	1.2	45	-27	-1	0.8	0.71	5.2	i	-7	-1
